Screens from PubChem BioAssay.
Calb FLC: C. albicans growth modulation with fluconazole; growth inhibition, % (test concentration not listed); C. albicans CaCi-2 (fluconazole-resistant clinical isolate) + fluconazole, Alamar Blue growth, 48 h; AID 1979; hit rate 0.57% among 300,000;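 active = most replicates above 75%; inconclusive = exactly half above 75%; inactive = most below 75%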;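 also: all wells also contain fluconazole at 8 µg/ml as a sub-toxic cotreatment; 0% = median of DMSO wells and 100% = median of geldanamycin control wells; wells of about 8 µL received 7.5 nL stock; the first replicate is given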
Beta2AR agonist: activates human beta-2 adrenergic receptor causing internalization. P07550. Am2.2-beta2AR cells, FAP receptor internalization, flow cytometry; reference of the scale not given here. response, % (test concentration not listed). hit rate 0.43% among 340,000;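 active = response above a set limit, near 3 SD of response in nonfluorescent compounds, cut at about 42% in these data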;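 also: stock transfer was 100 nL into about 11 µL; a reference agonist was the positive control; negative values mostly stem from fluorescent compounds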
T cruzi inh: T. cruzi replication inhibition. hit rate 1.4% among 300,000. T. cruzi beta-gal in NIH3T3, luminescence, 90 h. inhibition, % (concentration not given with the values);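 active = mean inhibition across valid replicates above about 55%, limit read from the data; inconclusive = mean below that limit but half or more replicates reach it; inactive = mean below it, under half of replicates reach it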;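 also: signal also drops with host cell toxicity which is not excluded here; 0% = plate median of DMSO wells and 100% = zero luminescence signal; higher percent means less beta-gal luminescence so fewer parasites; stock transfer was 50 nL into about 50 µL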
Beta cell apopt: blocks beta cell apoptosis. INS-1E cytokine-induced death, ATP luminescence, 48 h; percent of positive-control rescue, neutral wells zero. protection from apoptosis, % (no concentration beside the values). hit rate 0.8% among 300,000;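 active = all replicates at 75% or more, or half of them and the mean; inconclusive = half reach 75% but not the mean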;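 also: 0% = cytokine-treated negative control wells and 100% = positive control rescue; higher means more ATP so stronger rescue from cytokine killing; wells of about 40 µL received 100 nL stock; the first replicate is given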
Ecoli rRNA inh: selective bacterial rRNA inhibition in E. coli; E. coli WT GFP vs humanized-ribosome RFP mutants, fluorescence, 24 h; hits give low values; DMSO median 0, no signal -100; GFP signal change (wild-type ribosome), % (test concentration not listed); hit rate 1.6% among 350,000; AID 720706;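 active = significant combined selectivity score with lowered wild-type GFP, culture density cut under 30%, mutant RFP and density less affected; inactive = any of these conditions unmet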; also: one replicate is shown; some compounds called inactive have numbers as strong as hits
A1 inh: inhibitors of the anti-apoptotic protein A1, read as caspase activation; MEF A1-2A-BIM cells, Caspase-Glo 3/7 luminescence, 3 h; percent of clofoctol response, vehicle zero; caspase activation, % (test concentration not listed); hit rate 0.066% among 330,000; AID 2462;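 active = over half of replicate activation scores above 10%, or exactly half above 10 with the replicate mean above 10; inconclusive = replicate mean below 10 yet half the replicates above 10; inactive = over half of replicates below 10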;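 also: wells of about 30 µL received 50 nL stock; many hits fall short of the cut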
LANA-H2B inh: blocks KSHV LANA binding to histone H2A/H2B; cell-free LANA-H2A/H2B peptide, fluorescence polarization; inhibition, % (no concentration beside the values); hit rate 0.6% among 320,000; Q9QR71; in the data active = inhibition mostly above about 10%, no sharp cut-off; inactive = mostly below about 6.7%;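 also: stock transfer was 7.5 nL into about 10 µL; 0% = median of vehicle wells and 100% = median of positive control wells; one replicate is shown; the record names a cut of 25% in any replicate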
Target sequence (Q9QR71 whole entry, looked up): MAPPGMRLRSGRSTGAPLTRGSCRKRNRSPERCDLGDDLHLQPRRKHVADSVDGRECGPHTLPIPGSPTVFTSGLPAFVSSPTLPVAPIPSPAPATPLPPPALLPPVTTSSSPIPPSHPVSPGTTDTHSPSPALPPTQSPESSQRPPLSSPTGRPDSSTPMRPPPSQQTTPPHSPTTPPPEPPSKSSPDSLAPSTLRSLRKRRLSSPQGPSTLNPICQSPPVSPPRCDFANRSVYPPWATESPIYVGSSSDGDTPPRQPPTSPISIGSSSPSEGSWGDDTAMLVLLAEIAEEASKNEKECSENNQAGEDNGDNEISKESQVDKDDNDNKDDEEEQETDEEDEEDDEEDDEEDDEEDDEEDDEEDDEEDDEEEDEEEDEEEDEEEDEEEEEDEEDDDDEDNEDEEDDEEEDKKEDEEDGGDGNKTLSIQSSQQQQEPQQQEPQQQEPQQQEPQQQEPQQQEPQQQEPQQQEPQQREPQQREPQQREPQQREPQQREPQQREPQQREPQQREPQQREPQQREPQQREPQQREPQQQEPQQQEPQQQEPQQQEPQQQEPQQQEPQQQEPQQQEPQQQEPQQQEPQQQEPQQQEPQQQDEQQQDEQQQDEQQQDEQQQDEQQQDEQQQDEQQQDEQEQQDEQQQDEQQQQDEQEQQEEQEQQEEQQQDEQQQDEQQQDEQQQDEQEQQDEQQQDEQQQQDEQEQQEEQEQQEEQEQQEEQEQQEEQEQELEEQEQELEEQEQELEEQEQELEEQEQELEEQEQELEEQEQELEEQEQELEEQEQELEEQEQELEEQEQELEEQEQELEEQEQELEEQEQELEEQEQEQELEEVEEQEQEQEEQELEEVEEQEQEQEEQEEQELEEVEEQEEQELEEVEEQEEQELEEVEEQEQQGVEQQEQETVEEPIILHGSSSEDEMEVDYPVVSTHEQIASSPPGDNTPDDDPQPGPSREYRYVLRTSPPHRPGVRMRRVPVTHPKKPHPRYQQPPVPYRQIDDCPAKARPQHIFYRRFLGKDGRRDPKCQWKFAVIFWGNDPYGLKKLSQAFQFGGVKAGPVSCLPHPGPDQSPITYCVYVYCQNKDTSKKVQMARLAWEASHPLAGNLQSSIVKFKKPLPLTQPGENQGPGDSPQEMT
ALR H2O2 inh: inhibitors of human sulfhydryl oxidase ALR; P55789; purified ALR, DTT oxidation, H2O2 HRP-luminol luminescence; inhibition, % (no concentration beside the values); hit rate 3.8% among 290,000; AID 485317;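 active = mean and each replicate at 75% or more; inconclusive = only one of the two met; inactive = neither met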;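 also: stock transfer was 7.5 nL into about 7.5 µL; 0% = neutral wells and 100% = wells with inactivated enzyme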
Ecoli rRNA inh OD600: second read-out of Ecoli rRNA inh, no call of its own (marks repeat the call); OD600 change, %; measured here: OD600 growth;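 optical density of the mix in the first replicate; 0 = DMSO median and -100 = no signal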
Ecoli rRNA inh RFP: recorded beside Ecoli rRNA inh, whose call it bears; RFP signal change, %; measured here: RFP humanized mutant strains;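 first replicate; 0 = DMSO median and -100 = no signal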
* hit, by the source's call; ? = inconclusive; / = not tested or not shown. A portion of the library. The share of hits here may be higher or lower than overall.

SMILES	Calb FLC	Beta2AR agonist	T cruzi inh	Beta cell apopt	Ecoli rRNA inh	Ecoli rRNA inh OD600	Ecoli rRNA inh RFP	A1 inh	LANA-H2B inh	ALR H2O2 inh
CC(Oc1ccccc1)C(=O)N1CCC2(CC1)CC(=O)c1ccccc1O2 (stereo unspecified)	19	-3	-1	/	1	1	1.0	0.2	0.4	-2
CCOC(=O)C1=C(C)N=c2s/c(=C\c3ccc(C(=O)O)cc3)c(=O)n2C1c1ccc(OC)cc1OC (stereo unspecified)	35	5	1	-6	7	11	-2.7	0.9	1.9	/
O=C(CSc1nnc(CNC(=O)c2ccccc2)o1)c1ccccc1	-1	6	10	0	-4	-5	-0.6	-0.2	-3.7	57
CCc1ccc(NC(=O)CSc2nc3ncc(Br)cc3[nH]2)cc1	-10	-2	0	12	-3	4	2.0	0.6	7.8	-4
COc1ccc(O)c(C(=O)c2cnn(C(=O)c3cccc(S(=O)(=O)N(C)C)c3)c2)c1	/	6	/	0	2	3	-3.1	-1.2	6.0	6
O=C(O)CSCC(=O)N1CCN(c2nc3cc(Cl)ccc3s2)CC1	-9	-10	-9	-5	10	13	10	0.0	-0.2	-18
O=C(CSC1=NC(=O)C(Cc2ccccc2)C(=O)N1)NC1CCCCC1 (stereo unspecified)	4	-1	-10	/	/	/	/	0.4	4.7	12
Cc1cccc(CC(=O)Nc2sc(C(C)C)cc2C(=O)N2CCOCC2)c1	-14	0	20	-3	-10	-18	-2.2	-0.4	1.5	3
CCCCn1c(=O)[nH]c(=O)c2c1nc(-c1cc(Br)c(OCC)c(OC)c1)n2C	2	12	0	-6	-24	-35	0.8	0.0	4.0	-2
COc1ccc(C(C)(C)C)cc1NC(=O)COC(=O)CN1C(=O)NC2(CCCCC2C)C1=O (stereo unspecified)	/	-4	/	-3	-10	-12	-1.9	-0.3	-5.2	-8
COc1ccc(-c2nnc(SCC(=O)NNC(=O)Cc3ccccc3)n2C)cc1OC	-7	0	-3	-1	20	16	4.8	0.1	0.4	-3
O=C(CSc1ccccc1)Nc1ccc(NC(=O)c2ccco2)cc1	-15	-2	-4	/	-4	1	3.6	0.4	8.2	-3
COCCCNC(=S)NNC(=O)C(O)(c1ccccc1)c1ccccc1	7	2	-3	-8	5	-6	-5.7	0.2	-1.3	58
CCCCN=c1scc(-c2ccc3c(c2)NC(=O)CO3)n1N=C1CCCC1	-7	-10	13	5	-16	-7	5.5	-0.4	4.3	11
Cc1ccc(-n2nnnc2CNC(=O)c2ccc3c(c2)OCO3)cc1C	-1	1	2	1	-3	-7	-3.8	0.3	-0.5	0
COC(=O)C1=C(NC(=O)COc2ccc(Cl)cc2Cl)CCS1	-14	-34	13	3	7	-8	-6.5	-4.6	4.6	-1
O=C(OCc1nc2ccccc2[nH]1)C12CC3CC(CC(C3)C1)C2	-23	-2	6	-1	/	/	/	0.3	1.1	-1
N/C(=N\OC(=O)c1ccc(Cl)cc1[N+](=O)[O-])c1cccnc1	13	-20	8	-4	-22*	-6.0*	2.9*	-0.3	1.4	-18
Cc1ccccc1-n1c(Cc2cccs2)n[nH]c1=S	5	1	5	-5	-8	-7	-4.6	0.6	-5.3	57
Cc1ccc2nc(-c3ccccc3)cc(C(=O)N3CC(C)OC(C)C3)c2c1 (stereo unspecified)	6	-5	-2	0	13	16	3.2	0.4	2.4	/
CC(C)(C)NC(=S)NNC(=O)c1cccc(Br)c1	22	-11	12	14	1	5	0.8	-0.8	4.3	/
Cc1c(Cl)cccc1NC(=S)NCc1ccccc1Cl	-24	5	-1	1	/	/	/	-0.3	6.3	2
CCCCOc1ccc(C(=O)Oc2ccc(C)nc2)cc1	?	-4	-16	-4	-10	-16	-12	-1.1	-0.8	3
CCCc1ccc(Oc2cc(N3CCOCC3)nc(-c3ccccc3)n2)cc1	0	10	-4	2	19	14	-8.5	0.6	-3.3	1
O=C1NC(c2ccccc2Br)=N/C1=C\c1ccco1	-8	-1	2	-5	16	11	7.3	-0.4	-2.3	-12
CC(Cc1ccccc1)N/C=C1/CC(=O)NC1=O (stereo unspecified)	5	10	-6	-5	/	/	/	-0.4	-0.8	2
Cc1sc2ncn(C(C)C(=O)OC3CCCCC3)c(=O)c2c1C (stereo unspecified)	-3	-1	2	2	/	/	/	0.7	-1.7	6
Cc1cc(C)n2nc(C(=O)Nc3c(C)nn(Cc4ccc(F)cc4)c3C)cc2n1	-1	-1	-2	0	8	4	-2.9	-0.1	-6.7	-4
CS(=O)(=O)N(CC(=O)N1CCC(C(N)=O)CC1)c1ccc(Oc2ccccc2)cc1	0	-10	-9	0	/	/	/	0.0	-2.1	0
COC(=O)c1ccc(-c2ccc(/C=N/NC(=O)CC3(C)OCCCO3)o2)cc1	27	-4	10	-5	-7	1	-3.9	0.3	-1.8	-2
CCOC(=O)Cc1nnc(NC(=O)C2CCCCC2)s1	-9	-1	-9	-8	4	-2	2.0	-1.5	-3.4	/
CC(C)c1ccc(NC(=O)N2CCOCC2)cc1	-17	-1	-11	/	6	9	0.6	-1.0	0.4	-8
COc1ccc(N(Cc2ccccc2)C(=O)OC(C)(C)C)c(C(=O)N(C)OC)c1	/	-7	/	3	-7	-4	2.4	-0.2	/	-1
O=c1c(N2CCOCC2)coc2ccccc12	9	-13	3	-4	14	11	4.7	0.6	-0.5	4
O=C(CNS(=O)(=O)c1ccccc1)Nc1ccc(F)cc1F	1	-1	-1	1	2	14	-2.8	-0.1	-0.3	1
CCc1cccc2c(=O)c(C(=O)N3CCOCC3)c[nH]c12	-4	2	-22	1	/	/	/	-0.5	1.1	0
CCOCCCNS(=O)(=O)c1ccc(Br)cc1	15	8	-7	0	/	/	/	1.3	-2.0	3
CCCn1c(=S)[nH]c2cc(OC)c(OC)cc2c1=O	-19	-6	-11	5	/	/	/	-0.5	1.6	-8
O=[N+]([O-])c1ccc2c(c1)nc1n2CCN(C2CCCCC2)C1	22	4	16	1	5	-13	-3.0	-0.7	-1.4	/
O=C(CSc1ccccc1)NCC1(N2CCCCC2)CCCCC1	-13	10	1	-7	7	6	4.8	-0.5	-2.7	-5
CC(=O)NC1CCCc2c1cnn2-c1ccc(C(C)(C)C)cc1 (stereo unspecified)	0	-5	-1	0	-11	-14	3.7	0.8	-4.8	/
Cc1cc(NC(=O)C2CCCCC2)ccc1NC(=O)c1ccccc1Cl	0	3	-3	-2	8	9	1.5	-0.2	-0.2	-4
CCCC1(CCC)NC(=O)NC1=O	1	3	5	1	/	/	/	-0.8	0.6	2
O=C(c1cc(COc2ccc(F)cc2F)on1)N1CCOCC1	15	-2	-10	-1	4	8	-4.2	-0.2	3.4	-5
CSc1nc(NCCCN(C)C)c2c3c(sc2n1)CN(C)CC3	-11	/	14	-1	7	11	-2.4	-0.4	1.0	-19
O=C(NC1CCCCCC1)c1ccc(Br)o1	-13	2	-14	0	-1	-1	-2.3	0.0	1.7	6
Cc1ccc(-c2nnn(CC(=O)N(CC3CCCO3)C(C(=O)NC3CCCC3)c3ccc(F)cc3)n2)o1 (stereo unspecified)	3	-6	13	-5	/	/	/	0.8	-7.8	-2
Cc1ccccc1OCc1nc(-c2cccnc2)no1	-1	0	-7	-2	-11	-7	-1.3	-1.9	6.2	61
Cc1ccc(C(=O)CCC2CCCC2=O)cc1 (stereo unspecified)	1	-3	7	-12	/	/	/	-1.0	-6.6	33
COc1ccc(C(=O)Nc2cccc(S(C)(=O)=O)c2)cc1	-10	2	10	3	6	6	1.9	-1.4	3.7	-19
O=C1NC(c2cccs2)Nc2ccccc21 (stereo unspecified)	-8	-8	-20	3	/	/	/	0.7	-0.6	-2
O=[N+]([O-])c1cccc(/C=N/Nc2nc(C(Cl)(Cl)Cl)nc3ccccc23)c1	-2	-2	18	7	/	/	/	0.6	-1.6	-1
COc1cc(CN2CCNC(=O)C2CC(=O)N(C)Cc2ncc[nH]2)cc(OC)c1 (stereo unspecified)	-1	-1	-11	-5	31	23	2.8	0.7	-0.8	-1
O=C(CNC(=O)C1COc2ccccc2O1)N/N=C/c1ccc([N+](=O)[O-])cc1 (stereo unspecified)	7	2	10	0	1	6	-1.2	-0.4	5.5	-2
CCOC(=O)c1ccc(Oc2nc(NC(C)(C)C)nc(N(C)C)n2)cc1	91*	2	6	-6	/	/	/	0.8	2.6	-5
Cc1cc(C)cc(OCCNS(=O)(=O)c2cccs2)c1	-43	-3	9	/	-19	-27	1.6	-1.2	1.6	-1
CC(C)(C)OC(=O)N1CCC(C(=O)NCC2CCCO2)CC1 (stereo unspecified)	14	-3	4	/	14	6	8.3	1.2	-8.5	-6
COc1cccc(NC(=O)C2CCN(c3ncccn3)CC2)c1	-17	4	-3	5	/	/	/	-0.9	0.2	-8
CC(=O)c1c(-c2ccccc2)c2cc([N+](=O)[O-])ccc2[nH]c1=O	/	-18	17	3	-10	3	-3.3	0.4	4.8	-60
C/C(=N\N)c1c(-c2ccccc2)c2cc(C)ccc2[nH]c1=O	4	-2	-16	2	15	-3	7.5	0.3	-0.9	/
The listing continues:
SMILES	Calb FLC	Beta2AR agonist	T cruzi inh	Beta cell apopt	Ecoli rRNA inh	Ecoli rRNA inh OD600	Ecoli rRNA inh RFP	A1 inh	LANA-H2B inh	ALR H2O2 inh
O=C(CCNc1ccccc1)c1cccc([N+](=O)[O-])c1	-15	3	13	-6	/	/	/	-0.8	3.7	98*
O=C(Nc1ccccc1C(F)(F)F)c1ccc(CN2CCC(Cc3ccccc3)CC2)cc1	-7	2	33	7	/	/	/	0.5	-0.2	-6
COc1ccc(-n2nc([N+](=O)[O-])c(=NCc3ccco3)n2O)cc1	?	-7	40	2	0	-3	12	-0.1	-1.3	-13
O=C(NCc1ccco1)C1CCCCC1	5	-5	-15	-2	5	7	2.4	0.5	2.6	/
O=C(CSc1nc2ccccc2[nH]1)Nc1nc(-c2cccc(Br)c2)cs1	13	12	3	-4	-19	-25	22	0.3	-3.2	34
COc1ccc(/C=N/Nc2nc(C)cc(=O)[nH]2)cc1OC	28	-3	-17	4	3	2	-3.0	2.1	-4.5	25
CC1CCN(c2nc3c(N)ncnc3n2[C@@H]2O[C@H](CO)[C@@H](O)[C@H]2O)CC1	2	-2	-8	-3	2	-1	5.5	3.0	3.2	-7
N[C@@H](Cc1cc(I)c(O)c(I)c1)C(=O)O	/	-6	4	/	-12	-39	0.3	0.5	-9.3	0
COc1ccc(NC(=O)CN(C)S(=O)(=O)c2ccc3c(c2)CCC(=O)N3)c(OC)c1	-1	3	0	0	3	8	-0.6	1.0	-2.5	-11
COc1ccc(C(=O)NCC(=O)OCc2ccc([N+](=O)[O-])cc2)cc1	-4	-16	-10	4	2	2	-0.4	-0.1	-2.3	/

Sorted by value in Ecoli rRNA inh RFP (smallest number first): 3 from the list above.
SMILES	Ecoli rRNA inh RFP
O=C(NCc1ccco1)C1CCCCC1	2.4
COc1ccc(-n2nc([N+](=O)[O-])c(=NCc3ccco3)n2O)cc1	12
O=C(CSc1nc2ccccc2[nH]1)Nc1nc(-c2cccc(Br)c2)cs1	22
